# MT1-MMP promoter = inhibitors of MT1-MMP promoter transcription, cell-based, luciferase reporter, luminescence (AID 618); MT1-MMP promoter luciferase reporter cells, luminescence; calls from a first round at 10 µM; hits with a dose series show EC50 in µM; actives 0.62% (n = 87,000);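 active = over half of the reporter light lost at 10 µM or EC50 under 50 µM; inactive = the rest and hits that failed the dose series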;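 note: actives suppress MT1-MMP promoter-driven transcription so potencies describe inhibitors; HT1080 fibrosarcoma cells; overnight exposure; toxic or luciferase-blocking compounds were not removed from the actives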
# Hsc70 ATP site = Hsc70 inhibitors, probe displacement, primary screen, biochemical, fluorescence polarization (AID 568); Hsc70 fluorescence polarization, probe displacement; higher % means a stronger effect; strong numbers were not always called active; displacement, % at 20 µM, or IC50 in µM where a hit was titrated; 83,000 tested, under 10 active;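 active = displacement above 50% without optical interference and an IC50 on retest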;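 note: ATPase domain with a fluorescein-tagged ATP probe; 0% = vehicle and 100% = excess ADP; read after one hour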
# WNV NS2B-NS3 inh = WNV NS2B-NS3 proteinase inhibition; WNV NS2B-NS3 protease, fluorogenic substrate Ex360/Em465; stronger effect = lower value; z-score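 (tested at a level between 10 and 100 µM)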; actives 0.18% (n = 65,000); AID 577;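 active = z-score at -3 or under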;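 note: score is relative to mean and spread of the compound wells of a plate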
# Target sequence (P06935 1371-1501 limits assumed): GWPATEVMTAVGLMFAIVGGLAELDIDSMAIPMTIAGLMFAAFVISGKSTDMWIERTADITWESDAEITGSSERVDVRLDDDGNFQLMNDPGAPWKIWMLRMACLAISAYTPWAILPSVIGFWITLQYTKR
# Target sequence (P06935 1502-1679 limits assumed): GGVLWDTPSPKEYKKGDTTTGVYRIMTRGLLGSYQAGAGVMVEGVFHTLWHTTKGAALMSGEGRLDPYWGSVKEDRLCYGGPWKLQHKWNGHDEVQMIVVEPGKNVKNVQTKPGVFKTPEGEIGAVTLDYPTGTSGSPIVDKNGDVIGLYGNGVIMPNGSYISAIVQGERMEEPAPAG
# * marks the source's active call; other numbers are inactive results; i = inactive; x = no result given; + = active, no number.
SMILES,MT1-MMP promoter,Hsc70 ATP site,WNV NS2B-NS3 inh
COc1ccc(C2NC(=O)NC(O)(C(F)(F)F)C2C(=O)c2ccc(F)cc2)cc1 (stereo not given),i,2.2%,0.62
CS(=O)(=O)N1CCN(C(=O)c2c(F)cccc2F)CC1,i,4.1%,2.33
Clc1ccc2nc(CSc3nnc(-c4c[nH]c5ccccc45)o3)cn2c1,i,-7.7%,1.57
Cc1ccc2c(Cl)cc(Cl)c(OCc3c(C)noc3C)c2n1,i,-4.7%,0.53
CC1=C(C(=O)N2CCc3ccccc32)C2(CCC(C)CC2)OC1=O (stereo not given),i,2.2%,-1.22
CCc1nnc(NC(=O)NCN2C(=O)C3C4C=CC(C4)C3C2=O)s1 (stereo not given),i,1.2%,-0.15
CC1CN(CCC(=O)Nc2ccc3c(c2)OCO3)CC(C)O1 (stereo not given),i,8.4%,-0.42
COc1ccc(NC(=O)CSc2nnc(Cc3cccn3C)n2CCc2ccccc2)cc1OC,i,-0.5%,-0.95
COc1ccc(N(C)S(=O)(=O)c2ccc3c(c2)oc(=O)n3C)cc1,i,1.8%,-0.5
COC(=O)C1CCN(S(=O)(=O)c2ccc(OC)cc2)CC1,i,6.1%,x
CCOC(=O)C1CCN(C(c2cc3ccc(C)cc3[nH]c2=O)c2nnnn2C2CCCCC2)CC1 (stereo not given),i,0.6%,-0.53
CCCC1=C(C(=O)OCC)C(c2ccccc2OCC)NC(=O)N1C (stereo not given),i,5.8%,1.11
O=C(Oc1ccccc1C(=O)Oc1ccccc1)c1ccco1,i,-1.3%,0.06
CC(=O)Nc1nc(N)n(-c2ccccc2)n1,i,-1.4%,x
COc1ccccc1-c1cc(C(=O)Nc2c(C)n(C)n(-c3ccccc3)c2=O)no1,i,4.1%,0.84
O=C(NNC1=C(C(=O)C(F)(F)F)CCC1)c1ccccc1O,i,-3.1%,x
CCCc1cc(C(=O)Nc2cccc(Cl)c2)no1,i,4.9%,-0.1
CCNC(=O)c1c(NC(=O)C2COc3ccccc3O2)sc2c1CCCC2 (stereo not given),i,-6.0%,x
CCCCN(CC)S(=O)(=O)c1ccc(C(=O)Nc2nnc(-c3cccs3)o2)cc1,i,0.9%,-0.3
CC(=O)C1=C(O)C(=O)N(c2ccc(C)cc2)C1c1ccccn1 (stereo not given),i,0.3%,x
CCOC(=O)c1c(CN2CCN(Cc3ccccc3)CC2)n(C)c2cc(Br)c(OC)cc12,i,6.4%,x
Cc1ccc(NC(=O)C2CCCN(S(=O)(=O)c3cccs3)C2)cc1 (stereo not given),i,-1.2%,1.28
CN(C)S(=O)(=O)N1CCCN(S(=O)(=O)N(C)C)CC1,i,-5.3%,-0.56
CCc1cc2c(N3CCN(c4ccccc4)CC3)ncnc2s1,i,0.2%,-0.51
COc1ccc(-c2nsc3c(N4CCCC4)ncnc23)cc1,+,-1.0%,-0.69

# Arranged by formula weight (low to high): part of the list above
SMILES,MT1-MMP promoter,Hsc70 ATP site,WNV NS2B-NS3 inh
CCCc1cc(C(=O)Nc2cccc(Cl)c2)no1,i,4.9%,-0.1
O=C(Oc1ccccc1C(=O)Oc1ccccc1)c1ccco1,i,-1.3%,0.06
COc1ccc(-c2nsc3c(N4CCCC4)ncnc23)cc1,+,-1.0%,-0.69
O=C(NNC1=C(C(=O)C(F)(F)F)CCC1)c1ccccc1O,i,-3.1%,x
Cc1ccc2c(Cl)cc(Cl)c(OCc3c(C)noc3C)c2n1,i,-4.7%,0.53
CCc1nnc(NC(=O)NCN2C(=O)C3C4C=CC(C4)C3C2=O)s1 (stereo not given),i,1.2%,-0.15
Cc1ccc(NC(=O)C2CCCN(S(=O)(=O)c3cccs3)C2)cc1 (stereo not given),i,-1.2%,1.28
Clc1ccc2nc(CSc3nnc(-c4c[nH]c5ccccc45)o3)cn2c1,i,-7.7%,1.57
CCNC(=O)c1c(NC(=O)C2COc3ccccc3O2)sc2c1CCCC2 (stereo not given),i,-6.0%,x
COc1ccccc1-c1cc(C(=O)Nc2c(C)n(C)n(-c3ccccc3)c2=O)no1,i,4.1%,0.84
COc1ccc(C2NC(=O)NC(O)(C(F)(F)F)C2C(=O)c2ccc(F)cc2)cc1 (stereo not given),i,2.2%,0.62
CCCCN(CC)S(=O)(=O)c1ccc(C(=O)Nc2nnc(-c3cccs3)o2)cc1,i,0.9%,-0.3
COc1ccc(NC(=O)CSc2nnc(Cc3cccn3C)n2CCc2ccccc2)cc1OC,i,-0.5%,-0.95
CCOC(=O)c1c(CN2CCN(Cc3ccccc3)CC2)n(C)c2cc(Br)c(OC)cc12,i,6.4%,x

# (listing goes on)
SMILES,MT1-MMP promoter,Hsc70 ATP site,WNV NS2B-NS3 inh
O=C(Cn1cnc2ccccc2c1=O)NCc1ccc2c(c1)OCO2,i,-2.3%,x
Cc1nnc2n(C3CCCCC3)c(=O)c3c4c(sc3n12)COC(C)(C)C4,i,-5.1%,-0.13
CCCC(=O)N=C1SC2CS(=O)(=O)CC2N1c1ccc(CC)cc1 (stereo not given),i,3.6%,-0.77
COC(=O)c1ccc(CSc2nnc(NCc3ccccc3)s2)o1,i,1.9%,-0.42
Clc1ccc(/C=N/Nc2nnc(-c3ncc[nH]3)c3ccccc23)cc1,i,-0.2%,x
COCc1cc(C)nc(N2CCOCC2)c1C#N,i,4.9%,-0.29
CCOc1ccc(S(=O)(=O)NCc2csc(C)n2)cc1,i,-2.0%,0.02
O=C(c1ccc(S(=O)(=O)NCC2CCCO2)cc1)N1CCc2ccccc21 (stereo not given),i,3.1%,-0.64
CCCc1nnc(SCCSc2nnc(CCC)n2N)n1N,i,-6.5%,-0.53
COC(=O)c1ccccc1NC(=O)C1CCN(S(C)(=O)=O)CC1,i,-1.3%,-0.66
CCOc1ccc(N2CCCn3c2nc2c3c(=O)n(CCc3ccccc3)c(=O)n2C)cc1,i,2.1%,2.94
O=C(Oc1cccc(N2C(=O)CCC2=O)c1)c1ccccc1,i,-2.2%,x
O=C(c1ccco1)N1CCN=C1SCc1cccc(Cl)c1,i,1.3%,-1.03
c1nnn(C23CC4CC(CC(C4)C2)C3)n1,i,1.5%,1.64
O=C(c1ccc(CN2CCOCC2)cc1)N1CCN(c2ccccc2F)CC1,i,8.3%,x
c1coc(-c2nnc(SCc3cn4ccccc4n3)o2)c1,i,9.2%,1.24
O=C(c1cc(-c2cccs2)on1)N1CCc2ccccc2C1,i,-1.1%,0.56
CSc1n[nH]c(NCc2ccc(Cl)cc2)n1,i,-1.2%,x
Cc1ccc2c(CSc3nnc(C4CC4)n3N)cc(=O)oc2c1,i,-2.2%,-1.26
O=C(Cn1nnc(-c2ccc(Cl)cc2)n1)NC1CC2CCC1C2 (stereo not given),i,6.0%,3.64
CCOC(=O)N1CCN(C(=O)CN(c2ccc(Cl)c(C(F)(F)F)c2)S(C)(=O)=O)CC1,i,6.1%,-1.44
Cc1sc2nc(C(C)C)nc(SCC(=O)NCc3ccco3)c2c1C,i,-1.9%,-0.19
CCC(C)Sc1nc2c(cnn2-c2ccccc2)c(=O)[nH]1 (stereo not given),i,1.0%,-0.09
Cc1sc2ncn(CC(=O)NCCCC(=O)N3CCN(c4ccccc4)CC3)c(=O)c2c1C,i,-2.7%,x
O=C(COC(=O)c1ccccn1)Nc1ccccc1Cl,i,7.6%,0.74
SMILES,MT1-MMP promoter,Hsc70 ATP site,WNV NS2B-NS3 inh
COC(C)(C)[C@]12CC(O)(c3ccccc3)ON1[C@H]1CCCCC1N2O (stereo not given in full),i,1.4%,0.66
COc1ccc(OC(=O)c2cccnc2)cc1,i,1.1%,x
COCCNC(=O)C1CCCN(c2ncccn2)C1 (stereo not given),i,6.7%,-0.91
Cc1cc(=O)n2c(ccc3ccccc32)c1C#N,i,2.0%,0.94
COc1ccccc1CNC(=O)CN1C(=O)C(C)N(c2ccc(C)cc2)C1=O (stereo not given),i,5.0%,-1.91
CC(C)=CC(=O)Nc1nnc(C)s1,i,6.3%,x
Cc1ccc(-c2nnc3ccc(SC(C)C(=O)O)nn23)cc1 (stereo not given),i,1.9%,-1.29
O=C(c1cc2ccccc2c(=O)o1)N1CCCc2ccccc21,i,4.3%,0.64
CCOC(=O)C1(Nc2nccs2)Sc2ccccc2NC1=O (stereo not given),i,-0.6%,0.33
CCCCNC(=O)C1CCN(Cc2ccccn2)CC1,i,-3.2%,x
O=C(CCS(=O)(=O)c1ccc(Br)s1)N1CCc2ccccc21,i,2.2%,-0.4
Cc1ccc(N(C(C)C(=O)Nc2ccc3c(c2)OCO3)S(C)(=O)=O)cc1 (stereo not given),i,2.4%,2.31
CCOC(=O)c1ccc(CS(=O)c2ccc(Cl)cc2)o1 (stereo not given),i,-2.3%,-0.72
CCOc1cc(NS(=O)(=O)c2ccccc2)c(OCC)cc1NC(=O)c1ccco1,i,-2.5%,x
O=C1Nc2cc(Cl)c(Cl)cc2N(O)N1c1ccc(Cl)c(Cl)c1,i,-0.3%,x
COCCn1c(SCC(=O)N2CC(=O)Nc3ccccc32)nnc1-c1ccoc1C,i,0.8%,x
CC(=O)N1CCc2cc(S(=O)(=O)NC(CC(C)C)C(=O)Nc3cc(C)ccn3)ccc21 (stereo not given),i,2.8%,0.27
CC(C)Cc1nnc(NC(=O)CSc2ncn[nH]2)s1,i,4.0%,0.69
CCCC(=O)C1=C(N(C)c2ccccc2)CC(C)(C)C(C(=O)OC)C1=O (stereo not given),i,-1.1%,-0.47
Cc1cc(C)n(-c2nc(NCCO)c3c4c(sc3n2)CCCC4)n1,i,-5.2%,0.23
COc1cc(/C=N/n2nnnc2N)ccc1O,i,-5.6%,0.00406
CC(=O)Nc1ccc(N(C)S(C)(=O)=O)cc1,i,-1.8%,x
CC(C)(C)n1nnnc1C(c1cccc(C#N)c1)N1CCCc2ccccc21 (stereo not given),i,2.8%,0.41
O=C(C1CCN(S(=O)(=O)N2CCC3(CC2)OCCO3)CC1)N1CCOCC1,i,4.0%,2.05
CN1CCN(Cc2cc(COCc3ccccc3)c3cccnc3c2O)CC1,i,0.1%,1.04
SMILES,MT1-MMP promoter,Hsc70 ATP site,WNV NS2B-NS3 inh
Cc1ccc(C)c(NC(=O)C2CC(O)CN2C(=O)OC(C)(C)C)c1 (stereo not given),i,1.6%,-0.28
Cc1ccc(NC(=O)CSc2nnc(Cn3c(=O)sc4ccccc43)n2C)cc1,i,2.9%,-0.55
OC1CCCN(c2c3c(nc4cc(-c5cccc(Cl)c5)nn24)CCC3)C1 (stereo not given),i,3.3%,0.31
Cc1ccc(N2C(=O)c3ccccc3C2Nc2cccnc2)nc1 (stereo not given),i,4.8%,0.07
CC1CCN(S(=O)(=O)c2ccc(NC(=O)CN3CCCC(C)C3)cc2)CC1 (stereo not given),i,2.2%,x
FC(F)(F)c1ccccc1Nc1nccs1,i,3.9%,-0.83
Cc1cc(C)c(NC(=O)CS(=O)CC(=O)NCC2CCCO2)c(C)c1 (stereo not given),i,-5.1%,-0.94
N#CC1=C(N)NC(SCc2ccccc2)=C(C#N)C12CCCCC2,i,-6.3%,-0.43
COc1cc(Sc2ccc(C)cc2)c(OC)cc1N,i,-11.5%,-0.42
CCOc1ccc(N2CC(C(=O)NCc3ccc(F)cc3)CC2=O)cc1 (stereo not given),i,-0.5%,-0.2
CC(NC(=O)C1CCC1)c1ccc2c(c1)OCO2 (stereo not given),i,-1.7%,0.22
COc1ccc(NC(=O)Nc2ncn(Cc3cccc(C(F)(F)F)c3)n2)cc1OC,i,-0.3%,-1.75
CCOC(=O)c1[nH]c2ccc(OC)cc2c1NC(=O)c1nonc1C,i,-4.2%,1.03
C=CCOc1ccc(CNc2nccs2)cc1,i,-0.4%,x
OC(CNCC1COc2ccccc2O1)COCc1cccs1 (stereo not given),i,-6.1%,-0.9
CCC(C)NC(=O)c1cnn2c1NC(c1ccc3c(c1)OCO3)CC2C(F)(F)F (stereo not given),i,-4.5%,-0.62
O=C(Nc1ccc2oc(-c3ccccc3)nc2c1)c1ccc2c(c1)OCCO2,i,-5.5%,-0.45
Cc1ccc2[nH]c(=O)c(CN(CC3CCCO3)C(=O)c3ccncc3)cc2c1 (stereo not given),i,-2.5%,-0.2
Cc1cc(C)cc(-n2c(=O)c3sccc3n(CC(=O)NCc3ccco3)c2=O)c1,i,2.6%,-0.06
O=C(O)c1ccc2c(c1)N(Cc1cccc(F)c1)C(=O)CS2,i,6.4%,-0.53
COc1ccc(NC(=O)C2CC(=O)n3cnnc3S2)cc1 (stereo not given),i,0.7%,x
O=C1CN(C(=O)CSc2nnc(C3CC3)n2-c2ccccc2)c2ccccc2N1,i,-0.5%,x
COc1ccc(N2C(=O)CC(SCC(=O)O)C2=O)cc1 (stereo not given),i,2.1%,x
O=C(N/N=C/c1ccc(O)cc1)/C(=C/c1ccc([N+](=O)[O-])cc1)NC(=O)c1ccccc1,i,0.7%,x
N#Cc1nc(COc2ccc(Cl)cc2Cl)oc1N1CCN(c2ccccc2)CC1,i,-9.2%,-0.23
SMILES,MT1-MMP promoter,Hsc70 ATP site,WNV NS2B-NS3 inh
COC(CNC(=O)c1ccc2c(c1)nc(C)n2-c1ccc(F)c(F)c1)OC,i,0.3%,x
Cc1cc(C)c2c(CC(=O)O)coc2c1,i,-6.8%,-0.81
CCOC(=O)c1cc2c3ccccc3n(CC)c2nc1N,i,-3.4%,x
CCOc1ccc2nc(NS(=O)(=O)c3ccc4c(c3)n(C)c(=O)n4C)sc2c1,i,-2.9%,1.39
Cc1nc2cc3nc(C)sc3cc2s1,i,2.0%,1.01
CCC(=O)Nc1cc(=O)[nH]c2ncnn12,i,0.0%,1.12
C=C(C)COc1ccc(-c2nc(N)nc(C)c2Oc2ccccc2OC)c(O)c1,i,0.8%,0.12
N#Cc1ccc(NC(=O)COC(=O)CNC(=O)C2CCCCC2)cc1,i,-6.4%,x

# High-throughput results as filed in PubChem BioAssay.
